Bioassay records deposited in PubChem BioAssay by ICCB-Longwood Screening Facility, Harvard Medical School.
Ba CapD inh – Bacillus anthracis CapD inhibitors, primary screen, biochemical, fluorescence intensity; purified CapD enzyme, fluorescence intensity read-out; active compounds read low; some hits fall short of the stated cut; z-score (no concentration beside the values); 140,000 compounds, 0.23% hits;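 active = z-score under -4 in either of two replicates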;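 note: stock transfer was 100 nL into about 40 µL; score is relative to mean and spread of the plate; one replicate is shown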
AID504770 – growth inhibition of E. coli YBA685, primary screen, V. cholerae RctB inhibitors; 130,000 compounds, 0.27% hits; AID 504770, 2011; E. coli YBA685 rctB-dependent plasmid, OD600 growth, 3 h; active compounds read low; z-score (no concentration beside the values);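 active = z-score under -2 on both plates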;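 note: wells of about 30 µL received 100 nL stock; score is relative to mean and SD of the test wells; the first replicate is given; strong numbers were not always called active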
Active calls of the source: *; / = no result given.

| structure | Ba CapD inh | AID504770 |
| --- | --- | --- |
| Nc1cc(=O)[nH]c(SC(C(=O)N2CCCC2)c2ccccc2)n1 (stereo not given) | / | -0.15 |
| Cc1ccc(-c2nnc(Nc3cccc(Br)c3)c3ccccc23)cc1S(=O)(=O)NCCO | -0.7 | / |
| CC1(C)C(=S)Nc2ccccc21 | -1.86 | -0.45 |
| OC(CN=Cc1ccccc1)c1ccccc1 (stereo not given) | 0.09 | -0.15 |
| O=S(=O)(N1CCCCC1)N1CCNCC1 | / | -0.65 |
| Cc1ccc(CC(=S)N2CCOCC2)cc1 | -0.82 | -0.25 |
| OC(CNCC1(N2CCCCC2)CCCCC1)COCc1ccccc1F (stereo not given) | / | -0.2 |
| COc1ccc(C(=O)C(C)Sc2nnc(-c3ccccc3OC)n2C)cc1 (stereo not given) | / | 0.85 |
| CN(CC(=O)Nc1ccc(F)c(F)c1F)C(=O)c1cccnc1N1CCCC1 | / | -1.15 |
| COc1ccc(C)c2sc(=NC(=O)C(C)(C)C)n(C)c12 | / | -0.6 |
| COc1ccc(C)c2sc(NN)nc12 | / | -0.5 |
| CCN(CC)CC1(O)CCN(S(=O)(=O)c2ccc(Cl)cc2)CC1 | -0.25 | / |
| Cc1ccc(NC(=O)N2CCCCC2C)cc1Cl (stereo not given) | 0.04 | 0.2 |
| CCOc1ccc(N2C(=O)/C(=C\c3ccc4c(c3)OCO4)S(=O)(=O)C2c2cccc([N+](=O)[O-])c2)cc1 (stereo not given) | -0.31 | / |
| Nc1nnnn1NCc1ccc(-c2ccc(F)cc2)o1 | 7.32 | -0.15 |
| COc1ccc(C(=O)Nc2ccc(Cl)c(-c3nc4ccccc4s3)c2)cc1[N+](=O)[O-] | 0.005 | / |
| CCc1nc(SCC(=O)Nc2cccc(C(F)(F)F)c2)c(C#N)cc1C | 0.11 | / |
| C#CCOc1nc(OCC#C)nc(N(c2ccccc2)c2ccccc2)n1 | / | -0.25 |
| Cc1cccc(C2=NC(C(F)(F)F)(C(F)(F)F)N=C(c3ccco3)O2)c1 | -0.685 | -0.25 |
| CN=C1S/C(=C\c2ccc(Oc3ccc([N+](=O)[O-])cc3C#N)c(OC)c2)C(=O)N1C | 0.29 | / |
| CCn1c(=O)cc(SCC(=O)Nc2ccc(F)cc2)c2ccccc21 | 4.36 | 0.25 |
| O=C(Oc1ccc(Cl)cc1Sc1cc(Cl)ccc1OC(=O)c1cccs1)c1cccs1 | 1.31 | / |
| NC(=O)C1CCN(C2=NC(=O)/C(=C/c3cn(-c4ccccc4)nc3-c3cccs3)S2)CC1 | 1.8 | -1.3 |
| Cc1ccc(C(=O)[C@@H]2[C@H]3C4COC(O4)C(=O)[C@@H]3[C@H]3C=Cc4ccccc4N32)cc1 (stereo not given in full) | 7.28 | / |
| CCC(C)NC(=O)c1cc2c(=O)n(CC)c3ccccc3c2s1 (stereo not given) | -0.28 | 0.25 |

Ordered by length of the SMILES (rising): some entries from above
| structure | Ba CapD inh | AID504770 |
| --- | --- | --- |
| COc1ccc(C)c2sc(=NC(=O)C(C)(C)C)n(C)c12 | / | -0.6 |
| COc1ccc(C(=O)Nc2ccc(Cl)c(-c3nc4ccccc4s3)c2)cc1[N+](=O)[O-] | 0.005 | / |
| CN=C1S/C(=C\c2ccc(Oc3ccc([N+](=O)[O-])cc3C#N)c(OC)c2)C(=O)N1C | 0.29 | / |
| Cc1ccc(C(=O)[C@@H]2[C@H]3C4COC(O4)C(=O)[C@@H]3[C@H]3C=Cc4ccccc4N32)cc1 (stereo not given in full) | 7.28 | / |
| CCOc1ccc(N2C(=O)/C(=C\c3ccc4c(c3)OCO4)S(=O)(=O)C2c2cccc([N+](=O)[O-])c2)cc1 (stereo not given) | -0.31 | / |

Remaining list, next part:
| structure | Ba CapD inh | AID504770 |
| --- | --- | --- |
| COc1ccc(-c2[nH]c3c(=O)n(C)c(=O)n(C)c3c2O)cc1OC | / | 0.8 |
| CN(C)C(=S)NC(C)(C)C | -1.13 | 3.25 |
| CC(C)(C)c1ccc(CSc2nc3cc(C(=O)NCC4CCCO4)ccc3c(=O)n2Cc2ccco2)cc1 (stereo not given) | -1.9 | / |
| Cn1c(C(=O)OCC(=O)NCc2cccs2)cc2sccc21 | / | 0.75 |
| COc1ccc(C(=O)CSc2nc(-c3cccnc3)cc(C)c2C#N)cc1 | 0.75 | / |
| CC1=C(C(=O)OCc2ccccc2)C2(O)C(=O)c3ccccc3C2(O)N1 (stereo not given) | -0.1 | 0.4 |
| CCC(=O)Oc1cc2c(C(=O)OC(C)C)c(C)oc2cc1Br | -0.47 | -0.35 |
| O=C(O)C1CN(Cc2ccccc2)C1 | / | 0.85 |
| CCSc1nnc(NC(=O)C2CC(=O)N(c3ccccc3OC)C2)s1 (stereo not given) | / | 0.05 |
| O=C(CSc1nc2ccccc2c(=O)n1CCC(=O)N1CCN(c2ccccc2)CC1)NCCC1=CCCCC1 | -0.32 | / |
| Cc1onc(-c2ccccc2)c1-c1csc(Nc2ccccc2Cl)n1 | 9.73 | -0.05 |
| O=C(Oc1ccc(Cl)c(Cl)c1)c1ccccc1F | 0.12 | 0.45 |
| N#Cc1ccccc1Sc1ccccc1C(=O)N1CCN(CC(=O)N2CCCC2)CC1 | / | 2.3 |
| Cc1ccc(C)c(CN2C(=O)C(C(C)C(=O)NCCc3ccc(Cl)cc3)Sc3ccccc32)c1 (stereo not given) | 0.515 | 0.25 |
| O=c1cc(N2CCCCC2)[nH]c(=O)n1Cc1ccc(F)cc1 | -0.035 | -1.25 |
| O=C(NC1CCCCCCC1)c1nnc(-c2cccc(Cl)c2)o1 | 2.94 | 0.1 |
| CCOc1ccc(/C=c2/sc3n(c2=O)C(c2cccs2)C(C(=O)OC)=C(C)N=3)cc1OC(C)=O (stereo not given) | -0.63 | / |
| COC(=O)CSc1cc(C)nc(SC)n1 | -0.05 | -0.15 |
| O=C(O)Cc1csc(Nc2ccccc2F)n1 | / | -1.1 |
| CCn1c(=O)cc(SCC(=O)NCCCN2CCN(c3ccc(F)cc3)CC2)c2ccccc21 | 1.29 | 0.1 |
| COc1ccc(C2CCCCCN2C(=O)CCn2c(=O)oc3ccccc32)cc1 (stereo not given) | / | -0.1 |
| CC(=O)Nc1ccc(NC(=O)Cn2cnc3c(oc4ccccc43)c2=O)cc1 | 0.51 | -0.25 |
| O=C(Nc1ccccc1-c1nnc(-c2ccc(Cl)cc2)o1)c1ccc(F)cc1 | 1.36 | / |
| Cc1c(Cl)cccc1-n1c(SCC(=O)Nc2cccc(C(F)(F)F)c2)nc2n[nH]c(C)c2c1=N | 0.56 | / |
| O=C(O)c1ccccc1NC(C(=O)O)c1ccccc1 (stereo not given) | 102 | 0.25 |

Remaining list, next part.
| structure | Ba CapD inh | AID504770 |
| --- | --- | --- |
| O=C(O)COc1cccc(/C=C2/SC(=Nc3ccccc3Cl)NC2=O)c1 | -2.58 | / |
| O=C(O)c1ccc2c(c1)C1C3CCC(C3)C1C(c1ccccc1)N2 (stereo not given) | 1.85 | 1.9 |
| Cc1cc(NC(=O)COc2coc(CN3CCN(c4ccc(F)cc4)CC3)cc2=O)no1 | / | 0.35 |
| CCOc1ccccc1N(C)C(=O)c1cc2c(=O)n(CC)c3ccccc3c2s1 | 0.115 | 1.15 |
| O=C(COC(=O)c1ccco1)Nc1cccc2ccccc12 | / | -0.9 |
| COc1ccccc1C1=NN(C(=O)CCC(=O)O)C(c2ccccc2)C1 (stereo not given) | -0.445 | / |
| CCOC(=O)c1c(C)[nH]c(C)c1C(=O)COC(=O)C1CC2CCCC(C1)C2=O (stereo not given) | / | -0.15 |
| CC(C)C1CC(C)(C)c2ccc(O)cc21 (stereo not given) | / | -1.1 |
| Cn1cnc2cc(NCc3ccccn3)ccc21 | 6.89 | -1.1 |
| COc1ccc(/C=N/N2CCN(C)CC2)cc1 | -0.21 | -0.9 |
| CCCCN(CC)S(=O)(=O)c1ccc2oc(C(=O)O)c(C)c2c1 | 0.1 | -0.75 |
| O=c1oc2c(-c3ccc(Cl)cc3Cl)cc(O)cc2s1 | 0.23 | 0.15 |
| O=C(O)CCCC(=O)NC1=NCCS1 | -0.085 | -0.35 |
| FC(F)(F)c1cnc(NCc2nnc3ccccn23)c(Cl)c1 | / | -0.5 |
| COc1cc(C=NCCCN=Cc2cc(OC)c(OC)c(OC)c2)cc(OC)c1OC | 0.16 | / |
| Cc1cc(C(=O)NCc2ccc(C)o2)n[nH]1 | 0.49 | 0.4 |
| CCOC(=O)c1sc2ncn(/N=C/c3ccc4c(c3)OCCO4)c(=O)c2c1C | -0.545 | -0.65 |
| Cc1nn(-c2ccccc2)nc1C(=O)NC(=O)N1CCSCC1 | 0.38 | -0.25 |
| CCOC(=O)c1c(C)oc2c1c(C(c1ccccc1)N1CCOCC1)c(O)c1ccccc12 (stereo not given) | / | -0.4 |
| CCC(C(=O)N1CCN(c2cccc(C(F)(F)F)c2)CC1)c1ccccc1 (stereo not given) | 0.465 | 0.05 |
| O=C(Nc1nccs1)C(c1ccccc1)N1CCOCC1 (stereo not given) | -0.2 | -0.85 |
| Cc1ccc(C)c(-c2n[nH]c(=O)c3ccccc23)c1 | / | -0.55 |
| O=C(OC(CCCN1CCOCC1)c1ccc(F)cc1)C(c1ccccc1)c1ccccc1 (stereo not given) | -0.085 | / |
| O=C(NCCCn1ccc2ccccc21)c1cnccn1 | / | -0.5 |
| COc1cccc(CNC(=O)C2=C(C)C(=O)OC23CCCCC3)c1OC | 0.645 | -0.85 |

New compounds follow.
| structure | Ba CapD inh | AID504770 |
| --- | --- | --- |
| Cc1cccc(NS(=O)(=O)c2c(C)n[nH]c2C)c1 | 0.395 | -0.85 |
| CCN(C(=O)CSc1nnc(-c2ccccc2Br)o1)c1nc(C)cs1 | / | -0.15 |
| Cc1ccc(S(=O)(=O)Nc2ccc(S(=O)(=O)Nc3nccc(C)n3)cc2)cc1 | -0.48 | -0.75 |
| O=C(O)CC1SC(Cc2ccc(Cl)cc2)=NC1=O (stereo not given) | -3.28 | -0.65 |
| COc1cccc2c1CC/C(=C\c1ccc(N(C)C)cc1)C2=O | -0.14 | 0.9 |
| CCOc1ccc(NC2=NC(C(=O)NCc3ccccc3)CC(=O)N2)cc1 (stereo not given) | -0.875 | 2.5 |
| CCc1ccc(N2C(=O)/C(=C/C=C/c3ccco3)N(CC(=O)OC)C2=S)cc1 | -2.02 | 0.95 |
| Cc1[nH]c2ccccc2c1C(OC(C)C)c1ccccn1 (stereo not given) | -0.335 | -0.5 |
| COc1cc(OC)c(NC(=O)CCc2c(C)nc3c(c2C)c(=O)n(C)c(=O)n3C)cc1Cl | -0.005 | -0.4 |
| CCOC(=O)C1CCN(CCCCOc2ccc(C#N)cc2)CC1 | 0.025 | -1.1 |
| CC(C)c1cc(C(=O)N2CCN(C(c3ccccc3)c3ccccc3)CC2)no1 | 0.39 | -0.2 |
| CCOC(=O)N1CCC(NS(=O)(=O)c2cccc3nonc23)CC1 | -1.11 | / |
| CCOc1cc2c3c(c1)C1(OCCO1)C(=O)N3C(C)(C)CC2C (stereo not given) | -0.565 | 0.25 |
| O=c1[nH]cc(-n2c(=O)c3cc4c(=O)n(-c5c[nH]c(=O)[nH]c5=O)c(=O)c4cc3c2=O)c(=O)[nH]1 | 0.765 | 0.1 |
| CN(C)C(=O)Oc1ccc(Br)cc1C(=O)Nc1ccc(F)cc1F | 0.085 | -0.25 |
| CSc1nn2c(C(F)(F)F)cc(C(F)(F)F)nc2c1C#N | 1.04 | -0.25 |
| O=S(=O)(c1cccc(S(=O)(=O)N2CCCCC2)c1)c1cccc(S(=O)(=O)N2CCCCC2)c1 | -0.825 | 1.45 |
| CCOC(=O)c1cc(-c2ccc(C)cc2)n(CC(=O)NCC2COc3ccccc3O2)c1C (stereo not given) | -0.38 | 0.2 |
| Cc1ccc(-c2nn(-c3ccccc3)cc2CN(Cc2ccccc2)C(=O)c2ccco2)o1 | 1.08 | -0.9 |
| COc1ccc(C(C#N)N2CCC(c3ccccc3)=N2)cc1 (stereo not given) | 3.08 | 1.6 |
| COc1cccc(NC(=O)N(Cc2nc3ccccc3c(=O)[nH]2)C2CCCCC2)c1 | / | -0.3 |
| Cc1ccc(C2=NN3C(C2)c2cc(Br)ccc2OC3c2ccc(C(C)(C)C)cc2)cc1 (stereo not given) | -0.005 | / |
| Cc1ccc(N/C=C(\C#N)c2nc3ccccc3[nH]2)cc1 | -0.47 | / |
| COc1ccc(/C=C2\Oc3ccccc3N(CC(=O)N3CCOCC3)C2=O)cc1 | 0.475 | 1.55 |
| O=C(Nc1ccccc1)N1CCCCC1 | / | -0.85 |

Further compounds follow.
| structure | Ba CapD inh | AID504770 |
| --- | --- | --- |
| COc1ccc2nc(N3CCOCC3)c(/C=C3/C(=O)NC(=S)N3C(C)=O)cc2c1 | 0 | / |
| O=C(O)CCC(=O)Nc1ccc(O)c(C(=O)O)c1 | / | 0 |
| COc1ccc(C2=NN(CC(=O)Nc3cc(C)ccc3C)C(=O)CC2)cc1 | -1.19 | -0.55 |
| CC1=C(C#N)C(c2c[nH]c3ccccc23)C2=C(CCCC2=O)N1 (stereo not given) | -0.6 | 0.2 |
| OC1(c2cc(C(F)(F)F)cc(C(F)(F)F)c2)CC1 | 0.505 | -0.1 |
| O=C(COc1cc2oc(=O)cc(-c3ccccc3)c2cc1Cl)NC1CC1 | 0.37 | -0.2 |
| CCOC(=O)CC1C(=O)C=Nc2ccccc21 (stereo not given) | 14.9 | 1.1 |
| COc1ccc(NC(=O)C(NC(C)=O)C(=O)NCc2ccc(F)cc2)cc1 (stereo not given) | -0.52 | / |
| O=S(=O)(Cc1cc(N2CCOCC2)nc(-c2ccccc2)n1)c1ccccc1 | -0.235 | / |
| CCOc1ccc(N2COc3ccc4c(C)cc(=O)oc4c3C2)cc1 | 45.4 | / |
| Clc1ccc(C2=Nn3c(nnc3-c3cccc(Br)c3)SC2)cc1 | -0.195 | / |
